SNCA viab count – GF-AFC viability counterscreen for inhibitors of alpha-synuclein gene (SNCA) expression. AID 1671193, 2021. HEK-293-SNCA-luc viability, GF-AFC fluorescence, 24 h. 150,000 tested, 0.12% active. Potency, µM (series often up to 57.1 µM), inactives show top-dose activity change, negative = cytotoxicity, usual class: cytotoxic;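 further: 0% = DMSO-treated cells and -100% = medium-only wells without cells; nearly all actives have a fitted effect of over 30% in size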
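HEK-293-SNCA-luc cells (1500/well) plated 24 h, then exposed 24 h to a dilution series; GF-AFC added 30 min at 37C, fluorescence 405/540 nm; normalised to medium-only and DMSO wells, Hill fit.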
HEK293 tox – Cytotoxic Profiling in HEK 293 Cell Line of Diverse Libraries Using Quantitative High-Throughput Screening | HEK 293 viability, ATP luminescence (CellTiter-Glo), 48-72 h | Potency, µM (series often up to 115 µM), inactives show top-dose activity change, negative = cytotoxicity, hits mostly inhibitors | 94,000 tested, 6.6% active | AID 1345083, 2018; further: nearly all actives have a fitted effect of over 60% in size
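ATP-coupled CellTiter-Glo luminescence served as viability read-out, recorded 10 min after reagent addition at room temperature. HEK 293 cells, 250 cells/well, had been incubated with pintool-transferred compound for 48 or 72 hr at 37 degree Celsius.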
SNCA expr inhib – Primary qHTS assay for inhibitors of alpha-synuclein gene (SNCA) expression; HEK-293 SNCA-luciferase knock-in, luminescence, 24 h; Potency, µM (titrated, usually from 57.2 µM), without a hit: top-dose activity change, negative = inhibition, most hits filed as inhibitors; 140,000 tested, 0.17% active;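 further: plate controls were DMSO cells for no effect and cell-free wells for full effect; nearly all actives have a fitted effect of over 45% in size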
FLuc inh – Firefly luciferase inhibition profiling of diverse chemical library using quantitative high-throughput screening | Luciferin 4-monooxygenase (Photinus pyralis), P08659 | purified P. pyralis luciferase, luminescence, biochemical | Potency, µM (doses to about 115 µM), for inactives: top-dose activity change, negative = inhibition, most hits filed as inhibitors | 76,000 tested, 2.5% active | AID 1347043, 2019; further: nearly all actives have a fitted effect of over 65% in size
Target sequence (P08659 whole entry, looked up): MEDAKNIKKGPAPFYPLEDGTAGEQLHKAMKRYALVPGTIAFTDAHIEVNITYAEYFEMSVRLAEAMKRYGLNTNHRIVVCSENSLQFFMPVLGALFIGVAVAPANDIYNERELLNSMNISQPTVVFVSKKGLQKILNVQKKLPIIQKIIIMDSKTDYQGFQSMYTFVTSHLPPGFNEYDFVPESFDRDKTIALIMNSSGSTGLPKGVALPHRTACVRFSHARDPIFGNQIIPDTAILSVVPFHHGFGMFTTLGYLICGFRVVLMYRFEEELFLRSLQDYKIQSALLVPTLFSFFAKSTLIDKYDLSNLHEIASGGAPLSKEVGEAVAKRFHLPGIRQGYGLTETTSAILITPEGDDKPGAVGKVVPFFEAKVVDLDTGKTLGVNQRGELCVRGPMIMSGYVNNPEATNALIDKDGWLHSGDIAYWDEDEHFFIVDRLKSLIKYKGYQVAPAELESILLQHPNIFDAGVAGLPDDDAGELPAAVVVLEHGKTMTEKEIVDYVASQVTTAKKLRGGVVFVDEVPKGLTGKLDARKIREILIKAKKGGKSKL
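FLuc 10nM, D-luciferin 10uM, ATP 10uM, Mg acetate 10mM, Tris acetate pH 7.5, Tween/BSA; cpd qHTS; enzyme added last; CCD luminescence.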
3T3 cytotox – Cytotoxic Profiling in NIH 3T3 Cell Line of Diverse Libraries Using Quantitative High-Throughput Screening; NIH 3T3 viability, CellTiter-Glo ATP luminescence, 48-72 h; Potency, µM (doses to about 96.7 µM), for the others: top-dose activity change, negative = cytotoxicity, hits mostly inhibitors; 94,000 tested, 4.3% active; further: nearly all actives have a fitted effect of over 55% in size
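First NIH 3T3 cells are plated at 400 cells/well; next compound is pinned in; then plates incubate 48 or 72 hr at 37 °C; finally CellTiter-Glo is added and luminescence read after 10 min.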
* marks the source's active call; other numbers are inactive results; i = inactive; ? = inconclusive; · = no result given; [ ] = dose if it differs, or a comment. The call rests on the fitted dose curve; in most records, active means well fitted curve in the direction sought with a large enough effect; inconclusive means small, poorly fitted or top-dose-only effect, or another doubt; inactive means no such curve, though single readings can be large; an effect the other way counts as inactive or inconclusive. Unless noted, on the % scale 0 is the no-effect control and ±100 the full control effect; potency means the concentration at half of the fitted maximal effect. The list is partial (hit frequency here may not be typical).

#1 c1ccc(-n2nnnc2N2CCCC(c3nccn3Cc3ccccn3)C2)cc1 (stereo not given)
#2 Cc1nn(C)c(C)c1CCN(C)C(=O)CCC1CCN(C(=O)c2ccccc2Cl)CC1
#3 CC(C)CNC(=O)C(C)(C)Oc1nn(CC2CC2)c2ccc(CN3CCCC3)cc12
#4 CCCc1cc(C(=O)N2CC[C@H]3CNC[C@H]32)n(C)n1
#5 COc1cccc(S(=O)(=O)N2CCC(n3c(C)cnc3C3CC3)CC2)c1
#6 O=C(NCc1cccs1)c1cc2nc(-c3ccco3)cc(C(F)(F)Cl)n2n1
#7 CCC(=O)N1CCc2cc(OC)c(O)cc2C1
#8 CN(C)c1nc2c(c(=O)[nH]1)CCN(C(=O)c1sccc1Cl)C2
#9 Cc1nccn1-c1ccc(CNC(=O)C(c2ccccc2F)N(C)C)cc1 (stereo not given)
#10 CC(c1n[nH]c(=O)n1CCc1ccccc1F)n1cccn1 (stereo not given)
Compound,1,2,3,4,5,6,7,8,9,10
SNCA viab count,?,-4.9%,-10.9%[87.6 µM],5.0%,8.1%,10.7%,2.1%,-3.5%,0.8%,0.5%
HEK293 tox,-2.3%,-15.4%,?,-12.5%,?,·,·,-14.7%,-29.6%,0.8%
SNCA expr inhib,-7.7%,-3.7%,?,-21.0%,-16.0%,·,·,?,31.3%[activator],7.0%
FLuc inh,-6.4%,·,-2.8%[172 µM],9.7%,0.7%,·,·,-3.7%,0.0%,7.6%
3T3 cytotox,-25.8%,-21.1%,?,-18.1%,?,·,·,-30.8%,-23.7%,4.7%

#11 CCCOc1ccc(CN2C[C@@H]3C(=O)N(C)C(=O)[C@@H]3C2)cc1OC
#12 Cc1cc(C(=O)N2CCCC(c3nnc(Cn4ccnc4C)n3C)C2)no1 (stereo not given)
#13 Cc1nccn1Cc1nnc(C2CCCN(S(=O)(=O)C3CC3)C2)n1C (stereo not given)
#14 COc1cc(C2OC(c3ccc(OC)c(OC)c3)C(C)C2C)ccc1O (stereo not given)
#15 COc1cccc(-c2noc(-c3ccc(-c4cn[nH]c4)nc3)n2)c1OC
#16 Cc1nnc(-c2cc(N3CCN(c4ccccn4)CC3)ccn2)n1C(C)C
#17 COc1ccc(F)cc1S(=O)(=O)N1CCc2nn(CC3CC3)c(=O)n2CC1
#18 Cc1nccn1Cc1nnc(C2CCN(C(=O)c3cnccn3)CC2)n1C
#19 Cc1cn(CC(=O)N2C[C@@H](C)[C@](O)(C(C)C)C2)c(=O)[nH]c1=O
#20 O=C(CCC1CCN(C(=O)c2ccccc2)CC1)NCc1cccc(C(F)(F)F)c1
Compound,11,12,13,14,15,16,17,18,19,20
SNCA viab count,11.1%,-0.4%,8.8%,6.4%,-20.1%,-10.3%[87.6 µM],-1.0%,-6.1%,-7.2%,-9.6%
HEK293 tox,-0.1%,3.1%,-17.8%,·,-29.5%,?,-4.5%,1.1%,-9.7%,?
SNCA expr inhib,-10.3%,-21.3%,34.7%[activator],·,75.8%[activator],77.8%[activator][87.6 µM],?,-5.8%,5.0%,?
FLuc inh,-5.5%,-8.1%,12.8%,·,3.3%,?,8.2%,9.6%,-1.7%,4.2%
3T3 cytotox,-24.3%,i,0.2%,·,-21.1%,-14.9%[138 µM],-0.8%,i,-15.1%,-25.6%

A draw from above in order of SMILES length, smallest number first:
#7 CCC(=O)N1CCc2cc(OC)c(O)cc2C1
#10 CC(c1n[nH]c(=O)n1CCc1ccccc1F)n1cccn1 (stereo not given)
#18 Cc1nccn1Cc1nnc(C2CCN(C(=O)c3cnccn3)CC2)n1C
#9 Cc1nccn1-c1ccc(CNC(=O)C(c2ccccc2F)N(C)C)cc1 (stereo not given)
#12 Cc1cc(C(=O)N2CCCC(c3nnc(Cn4ccnc4C)n3C)C2)no1 (stereo not given)
#15 COc1cccc(-c2noc(-c3ccc(-c4cn[nH]c4)nc3)n2)c1OC
#17 COc1ccc(F)cc1S(=O)(=O)N1CCc2nn(CC3CC3)c(=O)n2CC1
#20 O=C(CCC1CCN(C(=O)c2ccccc2)CC1)NCc1cccc(C(F)(F)F)c1
#19 Cc1cn(CC(=O)N2C[C@@H](C)[C@](O)(C(C)C)C2)c(=O)[nH]c1=O
Compound,7,10,18,9,12,15,17,20,19
SNCA viab count,2.1%,0.5%,-6.1%,0.8%,-0.4%,-20.1%,-1.0%,-9.6%,-7.2%
HEK293 tox,·,0.8%,1.1%,-29.6%,3.1%,-29.5%,-4.5%,?,-9.7%
SNCA expr inhib,·,7.0%,-5.8%,31.3%[activator],-21.3%,75.8%[activator],?,?,5.0%
FLuc inh,·,7.6%,9.6%,0.0%,-8.1%,3.3%,8.2%,4.2%,-1.7%
3T3 cytotox,·,4.7%,i,-23.7%,i,-21.1%,-0.8%,-25.6%,-15.1%

A different layout for 2 compounds above.
| entry | SMILES | SNCA viab count | HEK293 tox | SNCA expr inhib | FLuc inh | 3T3 cytotox |
| --- | --- | --- | --- | --- | --- | --- |
| 12 | Cc1cc(C(=O)N2CCCC(c3nnc(Cn4ccnc4C)n3C)C2)no1 (stereo not given) | -0.4% | 3.1% | -21.3% | -8.1% | i |
| 13 | Cc1nccn1Cc1nnc(C2CCCN(S(=O)(=O)C3CC3)C2)n1C (stereo not given) | 8.8% | -17.8% | 34.7%[activator] | 12.8% | 0.2% |

(more compounds)
#21 COCCCNC(=O)C(NC(=O)c1ccccc1)C1CCN(C(=O)c2ccc(C)cc2)CC1 (stereo not given)
#22 C[C@@]1(O)CCN(C(=O)CN)C[C@@H]1Cc1ccccc1
#23 O=C(CCC1CCN(C(=O)c2ccccc2)CC1)NCC1CCCCC1
#24 CCc1cc(N(C)Cc2ccc(OC)c(OC)c2)n2nccc2n1
#25 Cc1cc(N2CCN(C(=O)C(c3ccc(F)cc3)N(C)C)CC2)cc(C)n1 (stereo not given)
Compound,21,22,23,24,25
SNCA viab count,3.0%,-0.2%,3.0%,-10.6%,-22.9%
HEK293 tox,-7.2%,i,-6.2%,?,-34.0%
SNCA expr inhib,-11.8%,3.8%,2.4%,19.3%,-18.7%
FLuc inh,-3.1%,10.7%,0.9%,-10.4%,-10.0%
3T3 cytotox,i,i,-20.1%,?,?

Assay outcomes deposited in PubChem by National Center for Advancing Translational Sciences (NCATS).
